Bioassay records (PubChem BioAssay)
eIF4H FP inh: inhibitors of RNA binding by human eIF4H; Q15056; eIF4H fluorescence polarization binding assay; inhibition, % at 35 µM; 290,000 compounds, 0.94% hits; AID 2012;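 active means 50% or more with normal probe brightness, or confirmed in later tests; inconclusive means above 50% with abnormal brightness, or retests that disagree; inactive means below 50% or failed in later tests; about a fifth of its hits are not listed in these tables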;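 further: calls also rest on retests at 20 µM and on dose response follow-up; 0% = protein and probe with vehicle and 100% = probe without protein; strong numbers were not always called active; many hits fall short of the cut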
PABP polyA inh: blocks human PABP binding to poly(A) RNA. 290,000 compounds, 1% hits. inhibition, % at 35 µM. AID 2014. P11940. fluorescence polarization;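 active means 50% or more with normal probe brightness, or confirmed in later tests; inconclusive means above 50% with abnormal brightness, or retests that disagree; inactive means below 50% or failed in later tests; about a fifth of its hits are not listed in these tables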;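 further: calls also rest on retests at 20 µM and on dose response follow-up; controls were probe without protein and protein plus probe with vehicle; some compounds called inactive have numbers as strong as hits; many hits fall short of the cut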
Target sequence (P11940 whole entry, looked up): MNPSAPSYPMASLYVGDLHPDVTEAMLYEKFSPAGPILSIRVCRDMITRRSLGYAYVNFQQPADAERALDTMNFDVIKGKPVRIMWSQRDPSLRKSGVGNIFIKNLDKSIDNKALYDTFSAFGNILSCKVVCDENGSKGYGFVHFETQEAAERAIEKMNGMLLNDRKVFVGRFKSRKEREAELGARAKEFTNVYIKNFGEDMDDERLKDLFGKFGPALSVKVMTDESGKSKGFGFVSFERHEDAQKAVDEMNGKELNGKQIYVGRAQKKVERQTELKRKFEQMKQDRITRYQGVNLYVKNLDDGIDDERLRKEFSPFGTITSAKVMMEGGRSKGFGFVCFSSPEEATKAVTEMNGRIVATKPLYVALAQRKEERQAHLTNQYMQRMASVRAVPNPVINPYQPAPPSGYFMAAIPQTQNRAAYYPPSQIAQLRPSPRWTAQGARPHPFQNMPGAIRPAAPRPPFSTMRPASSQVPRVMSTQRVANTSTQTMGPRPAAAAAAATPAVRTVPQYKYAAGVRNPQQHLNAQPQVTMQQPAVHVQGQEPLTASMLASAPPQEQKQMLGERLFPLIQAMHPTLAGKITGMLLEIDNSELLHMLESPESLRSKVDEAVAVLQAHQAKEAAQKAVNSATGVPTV
CSC inhib: cancer stem cell inhibition | cancer stem cell-like cells viability, luminescence | inhibition, % at 7.5 µM | 300,000 compounds, 1.1% hits;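 active means mean at 75% or more and at least half the replicates too; inconclusive means mean and replicates disagree; tested in HMLE shEcad cells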;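 further: 0% = median of negative and 100% = median of positive control wells; the first replicate is given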
Rce1 inh: blocks yeast Ras-converting enzyme | Q03530 | yeast membranes, quenched prenylated peptide cleavage fluorescence | calls only | 290,000 compounds, 0.27% hits;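 active means fall in fluorescence gain of 50% or more versus controls, with final raw signal at or below 3038400; inconclusive means same 50% fall but final raw signal above 3038400; inactive means fall in fluorescence gain under 50%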;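 further: plate controls were neutral control wells for no effect and wells lacking membranes for full effect; tested at 10 µM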
Env fusion inh: inhibitors of HIV Env-mediated cell fusion | inhibition, % at 12.3 µM | HeLa-JRFL Env/CEM21 cell fusion, luciferase | AID 651610 | 360,000 compounds, 1.1% hits;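 active means mean replicate inhibition score of at least 50 and every replicate individually at or above 50; inconclusive means only one of the two criteria met; inactive means mean below 50 and not all replicates reaching 50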;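 further: 0% = plate neutral controls and 100% = maraviroc near 300 nM; one replicate is shown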
MT1-MMP act inh: blocks activation of human MT1-MMP; HT1080 RFP-PRO-GFP cells, GFP/RFP ratio fluorescence, overnight; percent of plate control window, DMSO zero; 360,000 compounds, 0.061% hits; GFP/RFP ratio change, % at 20 µM; AID 651647;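 active means GFP/RFP ratio change of at least 30% with cell ATP level not reduced by more than half and red fluorescence within 50% of control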; further: strong numbers were not always called active
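Assay system: HT1080 cells carrying an RFP-PRO-GFP reporter | Dosing: Single dose of 20 µM compound, 1% DMSO final | Incubation: Cells overnight before dosing, compound overnight, 37 °C, 5% CO2 | Evaluation: GFP/RFP fluorescence ratio | Control set: DMSO and RFP-L50D-GFP cell wells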
UUG fidelity: alters start codon recognition fidelity in yeast. S. cerevisiae UUG-firefly luciferase reporter, luminescence/redox ratio. activity score, % at 18.7 µM. 350,000 compounds, 0.13% hits;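 active means replicate mean at a twofold rise or more, about +100% in these data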;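 further: firefly luciferase made from a UUG start codon reports start codon fidelity; reporter light over untreated wells divided by growth signal over untreated wells; some hits fall short of that in this replicate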
eIF4H FP inh retest: second read-out of eIF4H FP inh, no call of its own (marks repeat the call); inhibition, %; compound at 20 µM; confirmation average;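 mean of two retest wells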
PABP polyA inh retest: recorded beside PABP polyA inh, whose call it bears; inhibition, %; compound at 20 µM; confirmation repeats;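 mean of two retest wells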
MT1-MMP act inh RFP: recorded beside MT1-MMP act inh, whose call it bears; RFP signal change, %; measured here: RFP expression control read;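 0 = vehicle wells; hits needed this value within 50% of zero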
Numbers without * were called inactive; i = inactive; ? = inconclusive; / = no result given; & = joins results of further samples; [ ] = remark or other dose. Outcome played no part in choosing rows; 2.9% or so of the library scored in one or more.

A first look:
SMILES	eIF4H FP inh	PABP polyA inh	CSC inhib	Rce1 inh	Env fusion inh	MT1-MMP act inh	MT1-MMP act inh RFP	UUG fidelity	others
Cc1cccc2sc(NNC(=O)c3ccc(S(=O)(=O)N4CCc5ccccc5C4)cc3)nc12	6	7	103*	i	-14	11	-6	-33
CCOC(=O)COc1ccc(S(=O)(=O)NCCC2=CCCCC2)cc1	0	0	3	i	8	1	3	/

Results (from the top)
SMILES	eIF4H FP inh	PABP polyA inh	CSC inhib	Rce1 inh	Env fusion inh	MT1-MMP act inh	MT1-MMP act inh RFP	UUG fidelity	others
Cc1cccc2sc(NNC(=O)c3ccc(S(=O)(=O)N4CCc5ccccc5C4)cc3)nc12	6	7	103*	i	-14	11	-6	-33
CCOC(=O)COc1ccc(S(=O)(=O)NCCC2=CCCCC2)cc1	0	0	3	i	8	1	3	/
N#Cc1ccc(CNc2cnccn2)cc1	10	-2	3	i	/	-2	0	-16
O=C1NN=C(c2ccc(Br)cc2)CC1c1ccc(Cl)cc1 (stereo not given)	-5	-8	-16	i	7	3	3	/
COc1ccc(COC(=O)C2CCN(S(=O)(=O)c3cccs3)CC2)cc1	/	/	-6	i	/	4	2	5
COc1ccc(C)cc1Nc1n[n+](-c2ccccc2)c(-c2ccc(C(=O)O)cc2)s1	-10	9	4	i	/	4	1	-13
O=C(COc1ccc2ccccc2c1Br)Nc1ccncc1	3	7	50	i	-55	-5	-28	12
O=C(COC(=O)CNC(=O)c1sc2ccccc2c1Cl)Nc1cc(Cl)cc(Cl)c1	6	15	-8	i	13	1	3	/
C[C@@H]1CCC[C@]2(O[C@H](CCO)C[C@H](O)[C@H]2O)O1	-6	6	-10	i	-8	-2	0	-23
C[C@H]1CN([C@@H](C)CO)C(=O)Cc2cc(NC(=O)C3CC3)ccc2O[C@H]1CN(C)Cc1ccc(C(=O)O)cc1	/	/	/	/	6[16.7 µM]	5	6	-1&5
CCCCCc1ccc(-c2cn(Cc3ccc4ccccc4c3)nn2)cc1	0	5	9	i	0	4	5	-17
COC(=O)C(C)N1C(=O)S/C(=C/c2cc(C)n(-c3ccccn3)c2C)C1=O (stereo not given)	83*	75*	0	i	-114	-6	-7	-12
CCOc1ccc(N=CNc2ccc(OCC)cc2)cc1	7	-6	-4	i	-5	7	6	/
CC(C)N1C(=O)CCC1C(=O)NCc1cccs1 (stereo not given)	1	-5	-4	i	-6	6	3	/
O=C(NC(=S)Nc1ccc2[nH]c(=O)[nH]c2c1)c1ccccc1F	-4	15	-10	i	-118	5	1	-15
COC(=O)c1ccc(C)c(NC(=O)CCc2cc(OC)c(OC)c(OC)c2)c1	0	-14	/	i	-6	1	3	/
CCN(CC)c1ccc(C(=O)NNC(=O)CNC(=O)c2ccco2)cc1	/	/	/	/	0	-3	5	0
COc1ccc(CNC(=O)C(C)c2ccc([N+](=O)[O-])cc2)cc1 (stereo not given)	3	-3	/	i	-3	1	-1	/
O=C(O)c1cnn2c1NC(c1cccs1)CC2C(F)(F)F (stereo not given)	2	13	-10	/	/	1	2	-13
Cn1ncc(C#N)c1NC(=O)c1cc(-c2ccccc2Cl)on1	-5	5	/	i	-27	-1	-2	-4
O=C(CN1C(=O)c2ccccc2S1(=O)=O)c1ccc2c(c1)OCCO2	-6	8	-6	i	84*	3	4	-10
CCc1ccc(C(=O)COC(=O)CNC(=O)COc2ccccc2)cc1	4	7	2	i	-6	1	6	-10
O=c1[nH]cnc2sc(-c3ccccc3)cc12	0	9	1	i	-188	34*	-5.1*	-24
CCCNC(=O)COC(=O)/C=C/c1cccc(F)c1	5	16	-4	i	12	4	4	/
CC(=O)c1ccccc1NC(=O)COC(=O)/C=C/c1cccs1	/	/	-6	i	-16	1	1	5
Cc1cccc(S(=O)(=O)NC(=O)C2(C)CCN2C(=O)C2(c3ccc(Cl)cc3)CC2)c1 (stereo not given)	/	/	/	/	-10	3	7	6
COc1cccc(C(=O)CN(C(=O)c2ccc(Cl)cc2Cl)N2C(=O)c3ccccc3C2=O)c1	-2	-6	11	i	-58	9	11	-6
Cc1nc2ccccc2nc(C)c1=NOCc1ccc(Cl)cc1Cl	-5	7	11	i	/	-3	6	/
CC(C)CCN(C(=O)c1csnn1)C(C(=O)NC1CCCC1)c1ccccc1 (stereo not given)	-9	0	-3	i	13	-4	-3	-1
CC(Oc1ccccc1Br)C(=O)N1CCc2ccccc21 (stereo not given)	-1	-5	-9	i	/	-6	-7	/
O=Cc1c(NCc2ccccc2)c2ccccc2[nH]c1=O	-5	2	-12	i	-1	-3	0	-15
NNC(=O)Cn1c(COc2ccc(Cl)cc2)nc2ccccc21	8	6	7	i	-26	1	4	-7
O=C(NC1CCCC1)c1ccc(Cn2c(=O)[nH]c3ccsc3c2=O)cc1	1	-4	-14	i	8	-2	-4	/
Cc1oc2cc3oc(=O)c(CCC(=O)NCCCN4CCCC4=O)c(C)c3cc2c1C	8	-2	7	i	/	3	2	-13
O=c1[nH]c2cccnc2n1-c1cccc([N+](=O)[O-])c1	-7	-6	-5	i	-11	/	/	/
COc1ccc(CNc2nc(C)c([N+](=O)[O-])c(C)c2C#N)cc1	-1	120	4	i	0	1	4	/	eIF4H FP inh retest=-4;PABP polyA inh retest=2
CCc1nn2c(N)c(/C=C3\C=Nc4ccccc43)c(=O)nc2s1	18&2	-2&4	-6&5	i	8&-6	-2&3	-3&6	-5&-14
Cc1cc(C(=O)N2CCCC(C(=O)c3cccc4ccccc34)C2)nc(C)n1 (stereo not given)	-3	-4	-14	i	1	-1	4	/
CCOc1ccccc1C(C(=O)NC1CCCC1)N(C(=O)c1csnn1)C1CC1 (stereo not given)	-2	-6	-10	/	1	3	3	-7
Cc1nnn(C23CC4CC(CC(C4)C2)C3)n1	3	2	-10	i	-6	-5	2	-13
CC(=O)Nc1ccc(S(=O)(=O)N2CCN(C(=O)CCC3CCCC3)CC2)cc1	-4	3	/	i	32	2	-6	-10
O=C1C2C3C=CC(CC3)C2C(=O)N1/N=C/c1ccc(O)cc1 (stereo not given)	1	2	-4	i	/	0	2	-30
COc1ccc(S(=O)(=O)N(CC(=O)Nc2cccnc2)c2ccccc2OC)cc1	-4	-2	1	i	/	-3	0	-21
O=C(/C=C/c1ccccc1[N+](=O)[O-])NCc1ccc(Cl)cc1	-3	0	/	i	3	1	3	/
CC1Cc2ccccc2N1C(=O)CCN1C(=O)C2C3C=CC(C3)C2C1=O (stereo not given)	6	-7	2	i	-21	2	-2	2
CCCNS(=O)(=O)c1ccc(CCC(=O)NCC2CCCO2)cc1 (stereo not given)	-7	-5	6	i	-76	-3	3	-26
O=C(Nc1ccc(NC(=O)c2ccc([N+](=O)[O-])o2)cc1Cl)c1ccco1	-3	-6	54	i	-37	1	-7	-13
COc1cc(OC)cc(C(=O)NCC2CCCN(C(=O)c3csc(C)n3)C2)c1 (stereo not given)	-6	-4	-13	i	-5	2	4	-12
CCNC(=S)NN=C1c2ccccc2-c2ccccc21	2	4	/	i	14	2	-6	/
O=c1ccc(-c2ccccc2)n[nH]1	-11	-8	-4	i	/	2	0	-17
COc1cc(CNC[C@H]2O[C@@H](n3ccc(N)nc3=O)[C@H](O)[C@@H]2O)ccc1OCc1cccc(Cl)c1	/	/	/	/	10	4	4	-15
COCCn1nnnc1CN(CCCN1CCOCC1)Cc1cc2c(C)ccc(C)c2[nH]c1=O	-15	5	/	i	/	-1	1	-2
O=C1CCN(CCc2ccccc2)CCN1[C@H](CO)c1ccccc1	-6	9	-10	i	7	3	1	-13
COc1ccccc1NS(=O)(=O)c1ccc(C)c(C(N)=O)c1	-5	2	2	i	-45	3	0	-11
O=C(NC1CCCC1)c1ccc([N+](=O)[O-])s1	2	-2	-13	i	1	3	-5	/
COC(=O)Cc1ccc(NC(=S)Nc2ccc(N3CCOCC3)cc2)cc1	4	4	-6	i	9	7	9	-37
Cn1nc(C(F)(F)F)c(C(=O)Nc2ccc(F)cc2F)c1Cl	5	?	-2	i	16	2	5	/
CCOCC(=O)N1CCN(c2ccc([N+](=O)[O-])cc2)CC1	-3	5	1	i	/	7	-3	1
CN(CCOc1ccc(Cl)c(Cl)c1)Cc1ccccc1	7	11	/	i	-2	-2	0	-17
O=C(CN1C(=O)CCC1=O)Nc1ccc(S(=O)(=O)N2CCOCC2)cc1	7	-10	-12	i	-24	4	-5	-12
The list goes on.
SMILES	eIF4H FP inh	PABP polyA inh	CSC inhib	Rce1 inh	Env fusion inh	MT1-MMP act inh	MT1-MMP act inh RFP	UUG fidelity	others
CC1=C(C(=O)N(C)C)CC(CC(=O)NC(c2ccccc2)c2ccccc2)C(=O)N1Cc1ccc(C(C)(C)C)cc1 (stereo not given)	/	/	/	/	14	0	-10	-10
O=C(Nc1nnc(SCC(=O)N2CCCCC2)s1)C1CCCCC1	0	-7	18	i	-16	-4	-5	-10
Cc1nc2ccccc2n1-c1ccccc1	-1	16	15	i	8	-3	0	-11
Cc1nonc1C1CCCN1Cc1nc(-c2ccccc2Cl)oc1C (stereo not given)	-10	-8	1	i	8	-4	-7	/
Cc1c(C(=O)NNc2cc(=O)n(C)c(=O)n2C)cccc1[N+](=O)[O-]	-8	0	1	i	-53	-2	3	-6
COc1ccc(S(=O)(=O)N(C)C[C@@H]2Oc3ccc(NS(C)(=O)=O)cc3C(=O)N([C@@H](C)CO)C[C@H]2C)cc1	/	/	-1	/	7[16.7 µM]	-7	5	2&5
COc1ccc2nc(NC(=O)CSc3ccccc3)sc2c1	3	-10	2	i	/	-1	-4	-15
CC(C)(C)[C@H]1COC(=O)CCCC/C=C\C[C@H](CC(=O)NCCO)C(=O)N1	/	/	/	/	-13	2	8	-14
COc1cc(NC(=O)C2CC(=O)NC3=C2C(=O)CC(C)(C)C3)c(OC)cc1Cl (stereo not given)	-5	3	3	i	-61	0	3	-14
OC(Cn1cncn1)c1ccc(Cl)cc1Cl (stereo not given)	-2	-4	-12	i	/	-1	5	-18
CCOc1ccc(-c2nc(-c3cccnc3)no2)cc1OCC	8	-2	-28	i	-28	0	1	-12
CC(C(=O)O)N1C(=O)CSc2ncccc21 (stereo not given)	-9	-1	?	i	/	-6	9	/
Clc1ccc2c(c1)C(c1cccs1)=NNC(c1cccnc1)=N2	-13	0	-4	i	9	2	2	-21
Cc1ccc(-c2noc(C3CCCN(S(=O)(=O)c4ccc(S(=O)(=O)N(C)C)cc4)C3)n2)o1 (stereo not given)	-17	-5	8	i	/	4	1	/
COc1ccc(/C=C2\OC(=O)c3c(OC)cccc32)cc1OC	-3	0	1	i	/	5	3	-6
COc1cc2c(C(=O)NCc3ccc4c(c3)OCO4)cn(CC(C)C)c(=O)c2cc1OC	0	-1	-1	i	/	3	2	-12
Cc1ccc(NC(=O)NC2CC(=O)N(c3ccc4c(c3)OCCO4)C2)cc1 (stereo not given)	/	/	-7	i	7	-2	2	-13
CCOC(=O)N1CCN(Cc2nc(N)nc(Nc3ccc(Oc4ccccc4)cc3)n2)CC1	-9	1	11	/	/	-7	-18	-23
CCOc1cccc(-c2c(C(=O)N/N=C/c3sccc3C)nnn2-c2nonc2N)c1	-5	3	-9	i	8	-15	-5	-23
O=C(Nc1ccc(Cl)cn1)C1CC1	-4	-7	-8	i	19	3	1	-13
